BJeLR viability – MLPCN primary cell-based screen for lethality selective to Ras in HRASV12 cells. BJeLR (HRASV12) viability, CellTiter-Glo ATP luminescence, 48 h; reference of the scale not given here. inhibition, % (concentration not given with the values). 0.17% of 300,000 active;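 active = replicate mean above 50%; inconclusive = above 50% but judged a plate artefact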;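 also: 50 nL library stock added to about 25 µL; numbers are from one replicate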
Mtb hypoxia rep – PubChem AID 1159583 | M. tuberculosis hypoxia-regulated fluorescent reporter, fluorescence | fluorescence inhibition, % (test concentration not listed) | 0.1% of 300,000 active;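 active = 35 to 45% if threefold the growth effect, above 45% if 1.5-fold the growth effect; inactive = the rest, general growth blockers included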;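 also: wells of about 50 µL received 100 nL stock; 0% = vehicle wells and 100% = reference inhibitor wells; whole bacteria with a GFP reporter of the hypoxia response; strong numbers were not always called active; many hits fall short of the cut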
RN4220 kill – growth inhibition of S. aureus RN4220, primary screen, OD600; AID 1259311, 2017; 0.33% of 330,000 active; 16 h; inhibition, % (test concentration not listed);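 active = z-score of -3 or lower and OD600 up to 0.18 on both plates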;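 also: plate controls were untreated cells for no effect and reference antibiotic for full effect; stock transfer was 100 nL into about 80 µL; one replicate is shown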
Bead autofluor – compound fluorescence in toxin protease inhibitor counterscreen | compound autofluorescence counterscreen, microsphere flow cytometry; stronger effect = higher value | fluorescence intensity (concentration not given with the values) | 3.1% of 360,000 active;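 active = at least 3 SD above the mean of all compounds, about 16000 in these data; inconclusive = too few beads counted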;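 also: 100 nL of 1 mM stock went into each well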
PrP UTR inh – inhibition of PrP 5' UTR reporter expression | cell-based PrP 5' UTR mRNA reporter, plate reader | inhibition, % (test concentration not listed) | 0.35% of 340,000 active | AID 488862, 2010;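 active = every replicate at 50% or more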;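 also: 0 = median of the neutral control wells; tested in H4 reporter cells; numbers are from one replicate; inactives centre near -14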
Sa ugtP lethal – growth inhibition of ugtP-null S. aureus, primary screen, RN4220 ugtP deletion, OD600; 16 h; some inactives read as strong as hits; 0.54% of 330,000 active; growth inhibition, % (test concentration not listed);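 active = z-score under -3 and OD600 up to 0.15 on both plates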;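 also: plate controls were untreated wells for no effect and antibiotic for full effect; wells of about 80 µL received 100 nL stock; the first replicate is given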
Mtb hypoxia rep growth – second read-out of Mtb hypoxia rep, no call of its own (marks repeat the call); growth inhibition, %; measured here: M. tuberculosis growth (absorbance);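 0% = vehicle and 100% = reference antibiotic; read after six days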
* hit, by the source's call; ? = inconclusive; / = not tested or not shown. Compounds as they come; about 3.9% have a hit in one of these screens.

SMILES	BJeLR viability	Mtb hypoxia rep	Mtb hypoxia rep growth	RN4220 kill	Bead autofluor	PrP UTR inh	Sa ugtP lethal
CC(C)N(C(=O)COC(=O)c1cccnc1Cl)c1ccccc1	/	-3	-1	3.2	2980	9	-1
O=C(Cc1ccccc1)NC1CCN(C(=O)c2ccc([N+](=O)[O-])cc2)CC1	-1	3	-3	3.8	4713	6	9
CCN1CCN(CC(=O)N2N=C(c3cccs3)CC2c2ccc(OC)c(OC)c2)C(=O)C1=O (stereo unspecified)	5	-1	6	1.8	4439	-11	1
CCOC(=O)N1C/C(=C\c2ccccc2)C(=O)/C(=C/c2ccccc2)C1	21	/	/	0.6	3525	-14	8
COc1ccccc1CNC(=O)C1COc2ccccc2O1 (stereo unspecified)	-8	16	19	2.4	4264	-24	-2
Cc1cccc(C)c1NC(=O)C1(N(Cc2ccco2)C(=O)CC2NC(=O)NC2=O)CCCCC1 (stereo unspecified)	12	/	/	4.1	4901	-14	15
C[C@@]12C(=O)NCC(=O)N1C1c3cc(Br)ccc3OCC1C2c1ccccc1 (stereo partly specified)	/	7	0	7.4	/	/	1
O=C/C(=C\Nc1ccc(Cl)cn1)c1nc2ccccc2o1	3	11	15	-6.3	2490	-36	-6
CCN1C(=O)[C@@H]2[C@@H](c3ccc(-c4ccc(OC)cc4)cc3)N3CCC[C@@]3(C(=O)OC)[C@@H]2C1=O	-6	/	/	/	4080	-7	/
CC1CCCc2sc3nc(NCc4ccco4)n4ncnc4c3c21 (stereo unspecified)	/	/	/	-8.7	6042	-18	78
Cc1[nH]c2ccccc2c1C=NNC(=O)c1cc(-c2ccncc2)nc2ccccc12	/	8	6	1.0	/	/	-7
COCCCNC(=O)COc1ccc(Br)cc1Cl	6	10	9	2.1	2494	-56	1

6 entries from above, reformatted.
Second line of a record: BJeLR viability	Mtb hypoxia rep	Mtb hypoxia rep growth	RN4220 kill	Bead autofluor	PrP UTR inh	Sa ugtP lethal
Cc1cccc(C)c1NC(=O)C1(N(Cc2ccco2)C(=O)CC2NC(=O)NC2=O)CCCCC1 (stereo unspecified)
  12	/	/	4.1	4901	-14	15
COCCCNC(=O)COc1ccc(Br)cc1Cl
  6	10	9	2.1	2494	-56	1
C[C@@]12C(=O)NCC(=O)N1C1c3cc(Br)ccc3OCC1C2c1ccccc1 (stereo partly specified)
  /	7	0	7.4	/	/	1
CCOC(=O)N1C/C(=C\c2ccccc2)C(=O)/C(=C/c2ccccc2)C1
  21	/	/	0.6	3525	-14	8
CC1CCCc2sc3nc(NCc4ccco4)n4ncnc4c3c21 (stereo unspecified)
  /	/	/	-8.7	6042	-18	78
CC(C)N(C(=O)COC(=O)c1cccnc1Cl)c1ccccc1
  /	-3	-1	3.2	2980	9	-1

Next part.
SMILES	BJeLR viability	Mtb hypoxia rep	Mtb hypoxia rep growth	RN4220 kill	Bead autofluor	PrP UTR inh	Sa ugtP lethal
O=C(N1CCCCCC1)N1CCN(S(=O)(=O)N2CCOCC2)CC1	-6	12	9	0.7	2894	-16	3
COc1ccc(CCNC(=O)c2ccc3c(c2)OCCO3)cc1	0	9	5	1.0	3469	-45	2
Cc1ccc2[nH]c3c(c2c1)CN(C(=O)CN1CCN(c2cccc(C)c2C)CC1)CC3	-7	/	/	-8.1	5361	-16	-30
Cc1nc2ccccc2n1C1CCN(CC(=O)NCc2ccc(F)cc2)CC1	4	9	1	2.7	8972	-26	3
CNc1nc(-c2ccc3c(c2)CCN3C(=O)CC(C)(C)C)c(C)s1	5	6	-4	4.4	4801	-42	-13
CC1(C)C(=O)OC(/C=C\c2ccccc2)C(C)(C)C1=O (stereo unspecified)	4	10	9	4.6	3991	-13	3
CCOC(=O)N1CCC(NC(=O)c2cnn3cccnc23)CC1	-5	/	/	3.5	2782	-6	1
CSc1ccccc1C(=O)NCCCOC(C)C	-5	8	9	1.8	21738*	-4	7
Cn1cc(CN2CCCC(C(=O)c3cccs3)C2)c(-c2cccc(Cl)c2)n1 (stereo unspecified)	3	10	6	13	4400	-1	5
COc1ccc(N(CC(=O)Nc2ccc3c(c2)OCO3)S(=O)(=O)c2c(C)nn(C)c2C)cc1	-14	-5	-3	-1.5	5994	2	-8
O=C(O)CCNC(=O)C12CC3CC(CC(C3)C1)C2	-2	3	2	3.1	4529	-13	7
NC(=O)COC(=O)CCSc1ccc(Cl)cc1	7	7	12	5.3	3244	-26	3
O=c1[nH]c2cc3c(cc2cc1C(c1nnnn1Cc1ccccc1)N1CCCc2ccccc21)OCO3 (stereo unspecified)	-11	-1	1	5.6	/	/	-2
Cc1ccccc1C(=O)NN=C1SCC(=O)N1Cc1ccccc1	/	5	-6	5.5	/	/	8
O=C(CCc1ccccc1)Nc1ccc2ccccc2n1	0	5	15	2.8	2590	-49	-2
O=C(N/N=C/C=C/c1ccccc1[N+](=O)[O-])c1ccncc1	-16	/	/	/	3912	-4	/
Cc1cccc(-n2c(SCC(=O)NCc3ccco3)nc3ccccc3c2=O)c1	-5	5	2	1.5	?	1	2
Cn1cccc1/C=N/NC(=O)Cc1cccc2ccccc12	1	/	/	/	2352	0	/
O=C(CN1C(=O)c2ccccc2S1(=O)=O)c1cccc(Br)c1	4	6	2	2.5	3879	52	11
Cc1ccc(CNC(=O)Cn2cnc3c(OCc4ccccc4)ncnc32)o1	/	-6	-11	0.5	3746	-10	3
O=C(NC1CCCC1)C(c1ccc(N2CCOCC2)cc1)N(Cc1ccccc1)C(=O)c1ccco1 (stereo unspecified)	2	14	11	-13	3127	-19	2
O=C(COc1ccccc1)Nc1ncn[nH]1	-4	-2	-2	4.2	3481	-33	-2
COc1ccc(CNC(=O)COC(=O)/C=C/c2ccc(Cl)cc2)cc1	6	-3	-8	12	4532	-15	4
COc1cc(=O)oc(-c2ccccc2)c1C(C)=O	-5	8	7	1.0	5518	-12	7
Cc1ccc(C)c(NC(=O)CSc2nncn2C)c1	-5	-2	2	4.7	/	-6	4
O=C(Nc1ccc2ccccc2c1)c1ccc(Cl)cc1Cl	-10	/	/	/	3870	-30	/
O=[N+]([O-])c1ccc(-c2ccc(S(=O)(=O)N3CCOCC3)cc2)cc1	3	3	5	4.6	4133	-16	4
CCCCCOCC1CC(C/C(C)=N/NC(N)=O)(C(=O)OCC)C(=O)O1 (stereo unspecified)	1	/	/	/	3663	-18	/
COc1ccc(/C=C2\SC(=O)N(CC(=O)NC3C=CS(=O)(=O)C3)C2=O)cc1 (stereo unspecified)	-4	0	0	5.3	5262	7	-1
O=C(NC1CC1)C1=CC(c2ccc(C(F)(F)F)cc2)CC(OCCCCO)O1 (stereo unspecified)	/	16	10	2.7	/	/	2
C/C(=N\NC(=O)c1nnn(-c2nonc2N)c1-c1ccc2c(c1)OCO2)c1ccc(C)cc1	3	/	/	/	5852	3	/
Cc1ccc(NC(=O)CN(C)C(=O)c2cc(-c3ccco3)nc3ccccc23)cc1	-1	-16	2	0.3	?	-10	-2
Cc1[nH]c(C)c(S(=O)(=O)NCc2ccc(N(C)C)cc2)c1C(=O)N1CCCC1	-2	-1	7	1.5	6024	1	0
CCN(CC(=O)Nc1ccc(OC)c(OC)c1)S(=O)(=O)c1ccc(C)cc1	-2	/	/	1.9	2627	-12	7
O=C(CC1C(=O)NCCN1Cc1ccccc1C(F)(F)F)NCCn1cccn1 (stereo unspecified)	-29	-6	6	-1.2	3819	-10	-1
Cc1cc(C)c(C)c(S(=O)(=O)N2CCN(C(=O)c3ccccc3OCc3c(C)noc3C)CC2)c1C	/	-7	5	3.0	4173	-11	0
O=C(CN1CCN(c2ccccc2O)CC1)Nc1cc([N+](=O)[O-])ccc1Cl	-3	/	/	/	3538	-9	/
CCOC(=O)Cc1csc(-n2sc3ccccc3c2=O)n1	1	6	6	4.2	11183	-25	-1
Cc1[nH]c2ccccc2c1/C=N/Nc1ccc([N+](=O)[O-])cc1S(=O)(=O)Nc1ccc(Cl)cc1	6	/	/	/	14175	-13	/
C=CCn1c(SCC(=O)N2CCCC2)nc2c([nH]c3ccccc32)c1=O	-3	-16	1	1.0	5171	-4	-4
CC(C)CC(NC(=O)c1nc[nH]c1C(=O)N1CCN(c2ccccc2)CC1)C(=O)OCc1ccccc1 (stereo unspecified)	/	6	-7	5.5	/	/	1
CCN(CC)S(=O)(=O)c1ccc2[nH]c(=O)cc(C(=O)Nc3ccc(C)cc3)c2c1	-5	4	-1	-0.9	4386	-10	3
O=C(NN=Cc1ccc(OC(=O)c2ccccc2Cl)cc1)c1ccccn1	/	8	7	0.6	/	/	3
O=c1oc(-c2ccc(O)c(O)c2)cc2cc(O)cc(O)c12	/	/	/	-8.1	4359	-50	-7
O=C(Cc1ccc(Cl)cc1)NCC(=O)N1CCN(c2ccccc2)CC1	0	/	/	/	?	-10	/
CC(C)c1ccc(NC(=O)C2CCN(c3ncnc4c3nc3n4CCCCC3)CC2)cc1	7	-14	3	1.0	5728	1	0
CC(C)(C)C(C(=O)Oc1ccccc1)c1ccccc1 (stereo unspecified)	/	14	5	4.5	4119	-44	10
CCOc1ccc(CNC(=O)CCc2cn(Cc3ccccc3)c3ccccc23)cc1	-2	17	17	-0.9	5829	-18	6
Cc1ccc(S(=O)(=O)CCC(=O)Nc2nc(C(C)(C)C)cs2)cc1	6	18	4	7.3	5765	-9	3
CN1N=C(C(F)(F)F)CC1=O	4	-4	0	-3.0	2505	-2	-5
CC1CN(Cc2nc3c(c(=O)n(C)c(=O)n3C)n2CC(O)CO)CC(C)O1 (stereo unspecified)	2	5	0	-0.9	6389	-23	-1
c1csc(-c2ccnc3ncnn23)c1	3	13	4	3.8	2084	-21	-1
COc1ccc(CCNC(=O)CSc2nnc3ccc(-c4cccnc4)nn23)cc1	17	-3	0	-3.5	5781	-22	-8
CCOC(=O)/C(C#N)=C/c1c(N2CCN(c3ccccc3)CC2)nc2ccccn2c1=O	4	-7	6	1.5	4187	-28	-2
O=C(Nc1ccc(S(=O)(=O)N2CCOCC2)cc1)c1cc(-c2cc(Cl)ccc2O)n[nH]1	15	4	4	47	5041	-27	36
Cn1nc(C(=O)N2CCN(c3ccc([N+](=O)[O-])cc3)CC2)c2c1-c1ccccc1S(=O)(=O)C2	1	3	6	3.2	5610	-34	12
O=C(OCc1cnc(Cl)s1)c1cccs1	2	2	4	-0.4	4632	-36	-1
CCOC(=O)c1sc2nc(CN3CCN(c4cccc(C(F)(F)F)c4)CC3)[nH]c(=O)c2c1C	1	6	4	0.8	2149	9	-1
CCC(=O)Nc1nnc(S(=O)(=O)N(C)c2ccccc2)s1	-5	-7	-1	1.0	3956	1	-4
COc1cc(C(C)=O)ccc1COc1ccc(C(=O)OCC(=O)NC(C)(C)C)cc1OC	4	2	10	4.8	2076	-5	-1
Further compounds.
SMILES	BJeLR viability	Mtb hypoxia rep	Mtb hypoxia rep growth	RN4220 kill	Bead autofluor	PrP UTR inh	Sa ugtP lethal
COc1ccccc1Nc1nc(N)nc(CCl)n1	-3	/	/	/	3677	-31	/
O=C(/C=C/c1ccc(-c2cccc([N+](=O)[O-])c2)o1)N1CCOCC1	0	-1	10	-1.2	6553	/	-11
CCOC(=O)C1CCCN(S(=O)(=O)c2cc(OCC(N)=O)c(C)cc2Cl)C1 (stereo unspecified)	-4	/	/	2.5	3988	-17	-1
Cn1c(O)c(C=NCCCCCC(=O)O)c(=O)n(C)c1=O	/	0	-7	6.7	4938	-16	4
Cc1ccc(C2CC2C(=O)NNC(=S)Nc2cccc(C)c2)cc1 (stereo unspecified)	4	-2	9	2.3	9946	-29	8
O=C1CCCCCN1CSc1nc2ccccc2s1	6	17	5	-13	3154	-11	-5
CCCn1c(CC)nc([N+](=O)[O-])c1Sc1ccc(C)cc1	-8	9	7	6.2	7103	-15	2
CC(C)(C)OC(=O)N[C@@H](Cc1ccccc1)c1nnc(SCC(N)=O)o1	0	9	14	-1.2	4492	-31	-5
Cn1nnnc1SCc1nnc(-c2ccc(Cl)cc2)o1	12	/	/	2.4	4701	11	3
O=C(Nc1nc(-c2cc3ccccc3o2)cs1)c1ccc(S(=O)(=O)N2CCCC2)cc1	14	-1	6	31	2091	-34	20
CCCN1CCN(C(=O)c2ccc(Sc3ccc(C)cc3)c(NC(C)=O)c2)CC1	4	-14	5	-3.6	24723*	-41	-3
CC1CCCN(C(=O)NC(=O)c2ccc(Cl)cc2)C1 (stereo unspecified)	0	15	3	4.6	5935	-11	1

Bioassay records: PubChem, several laboratories
